# Arbovirus inh: antivirals against arbovirus infection, primary screen, cell-based, full library, 10K replicate subset; arbovirus infection cell-based antiviral screen; inhibition, % at 10 µM; actives 0.37% (n = 200,000);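 active means inhibition from about 30%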;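 further: bluetongue infection of BSR cells; cell survival read as ATP light after 72 h; 0% = infected wells without compound and 100% = uninfected wells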
# RecA intein inh: Mtb RecA intein splicing inhibitors, primary screen, biochemical, fluorescence, HTS; actives 0.75% (n = 290,000); cell-free RecA intein splicing; Protein RecA (Mycobacterium tuberculosis (strain ATCC 25618 / H37Rv)), P9WHJ3; inhibition, %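 (about 9 µM by stock and volumes)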; in the data active means inhibition above about 30%; inconclusive means no clear call, values can overlap the other calls;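 further: 0% = vehicle wells and 100% = reference inhibitor control wells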
# Target sequence (P9WHJ3 whole entry, looked up): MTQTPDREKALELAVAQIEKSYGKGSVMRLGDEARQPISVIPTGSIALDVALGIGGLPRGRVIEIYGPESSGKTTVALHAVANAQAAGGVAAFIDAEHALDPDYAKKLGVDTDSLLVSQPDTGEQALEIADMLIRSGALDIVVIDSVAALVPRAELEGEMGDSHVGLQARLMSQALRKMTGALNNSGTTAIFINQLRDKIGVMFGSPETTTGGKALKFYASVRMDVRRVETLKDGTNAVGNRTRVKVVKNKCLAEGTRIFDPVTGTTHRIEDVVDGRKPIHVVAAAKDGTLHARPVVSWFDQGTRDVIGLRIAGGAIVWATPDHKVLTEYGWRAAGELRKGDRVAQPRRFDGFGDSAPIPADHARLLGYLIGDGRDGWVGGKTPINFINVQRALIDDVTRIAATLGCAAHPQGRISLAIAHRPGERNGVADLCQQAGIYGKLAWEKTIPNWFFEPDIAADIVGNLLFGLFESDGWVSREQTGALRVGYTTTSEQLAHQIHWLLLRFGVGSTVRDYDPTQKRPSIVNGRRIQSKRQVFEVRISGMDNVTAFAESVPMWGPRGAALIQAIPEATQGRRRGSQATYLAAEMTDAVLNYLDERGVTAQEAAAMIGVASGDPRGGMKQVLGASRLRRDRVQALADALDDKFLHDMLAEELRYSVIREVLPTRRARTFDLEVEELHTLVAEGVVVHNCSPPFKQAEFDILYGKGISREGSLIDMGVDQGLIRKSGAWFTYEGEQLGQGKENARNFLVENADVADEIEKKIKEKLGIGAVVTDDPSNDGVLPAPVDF
# YopH PTP inh: YopH tyrosine phosphatase inhibitors, primary screen, biochemical, fluorescence Ex485/Em525. actives 0.16% (n = 140,000). inhibition, %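 (about 10 µM by stock and volumes)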. YopH tyrosine phosphatase [Yersinia enterocolitica];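 active means inhibition of 50% or more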;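 further: controls were vehicle for no effect and minimum signal wells for full effect; inactives centre near -20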
# Mtb growth: M. tuberculosis H37Rv growth inhibitors, H37Rv strain (AID 1626); M. tuberculosis H37Rv growth inhibition; higher % means a stronger effect; actives 0.95% (n = 220,000); inhibition, % at 10 µM, or IC50 in µM where a hit was titrated;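 active means confirmed in a dose series; inconclusive means inhibition above 80% but not taken into the dose series; inactive means below 80% or under 30% at every dose of the series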;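 further: bacteria incubated seven days before Alamar blue readout; 0% = bacteria only wells and 100% = bacteria with antibiotic wells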
# Mtb betalactam: beta-lactam sensitization of Mtb H37Rv, H37Rv. M. tuberculosis H37Rv growth with meropenem, percent inhibition; hits of this screen are not shown here. inhibition, % at 25 µM. actives 0.27% (n = 330,000);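 active means about 74% or more and at least 40 points above the plate without the antibiotic, then above 30% in a dose series; inconclusive means first-round hits that could not be retested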;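 further: growth measured after seven days incubation then overnight dye step; 0% = bacteria only wells and 100% = bacteria with antibiotic; twin plates without the antibiotic show which effects depend on it; some results filed as inactive read as strong as hits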
# Arbovirus inh repeat: further read-out of Arbovirus inh, marked with its call; inhibition, %; measured here: 10K subset replicate screen; many hits read low in the repeat;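 first of two repeat runs on a subset; 0% = infected and 100% = uninfected wells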
# Active calls of the source: *; ? = inconclusive; . = not tested or not shown. A portion of the library; count on the stated rates, not on these rows.
SMILES,Arbovirus inh,RecA intein inh,YopH PTP inh,Mtb growth,Mtb betalactam,others
CC(=O)c1cccc(NC(=O)CN2CCN(Cc3ccccc3)CC2)c1,.,-1.6,.,.,-2,
N#CCC(=O)N/N=C/c1cc([N+](=O)[O-])ccc1N1CCCC1,-7,6.5,.,-1%,3,
COc1ccc(/C=C2\Cc3ccccc3C2=O)cc1OC,.,-0.7,.,4%,38,
Clc1ccc2[nH]c3c(NCCCN4CCOCC4)ncnc3c2c1,3,4.0,-8,6%,-1,
O=C(O)Cn1c(P(=O)(O)c2ccccc2)nc2ccccc21,7,0.0,-23,7%,-13,
COc1cc(O)c(C(CC(=O)N2CCOCC2)c2ccc3c(c2)OCO3)c(OC)c1 (stereo not drawn),.,0.5,.,-7%,-7,
Cc1cc(Cl)cc(C)c1OCCCCCn1ccnc1,.,5.8,.,.,97,
COC(=O)C1=C(N)Oc2cc(C)n(Cc3ccncc3)c(=O)c2C1c1cccnc1 (stereo not drawn),.,-4.2,-31,-2%,-3,
Cc1cccc(N2C(=O)CC(Sc3nc(C)cc(C)n3)C2=O)c1 (stereo not drawn),-2,0.1,3,-7%,-12,
O=C(NCCc1ccccc1)C(=O)Nc1ccc([N+](=O)[O-])cc1,2,17,.,0%,6,
CCOC(=O)N1CCC(Nc2c(-c3ccccc3)c(=O)c2=O)CC1,2,1.3,-4,-2%,4,
COCCNC(=O)CSCc1nc(-c2ccc(SC)cc2)oc1C,-2,5.0,-31,-4%,-3,
CCNc1c(C(=O)O)ccc2c1C(=O)c1ccccc1C2=O,-7,5.9,-4,13%,16,
COCCN1C(=O)N[C@@H](c2ccccc2)C(C(=O)OC)=C1C,5,.,-27,-4%,-13,
O=C(NNS(=O)(=O)c1ccc(F)cc1)c1cnccn1,10,-3.6,.,5%,-1,
C/C(N)=C(/C#N)C(=O)CSc1cc(Cl)ccc1Cl,-4,0.3,-24,6%,5,
COCCCNCCCCOc1cccc(Br)c1,-19,-0.9,-29,-2%,5,
CCC(C)NC(=O)c1cc2c(=O)n3ccccc3nc2s1 (stereo not drawn),.,2.1,.,.,6,
C/C(CC(=O)NCc1ccco1)=N\NC(=O)c1ccc(Cl)cc1Cl,.,1.6,.,.,2,
Cc1cc(NC(=O)c2ccc3c(c2)C(=O)N(C2CCCCC2)C3=O)no1,3,0.1,-15,-1%,8,Arbovirus inh repeat=-5
CCc1nc(SCc2nnc(-c3ccc(C)cc3)o2)c2c(C)c(C)sc2n1,.,0.1,-22,4%,-7,
COc1ccc2c(c1)C(=O)C(=O)N2CC1COc2ccccc2O1 (stereo not drawn),.,6.3,.,.,3,
O=C(COc1ccccc1)Nc1nnc(-c2ccc3c(c2)CCCC3)o1,-17,-0.8,-57,?,92,
C/C(=N\Nc1ccccn1)c1ccc(OC(F)F)cc1,-20,0.9,.,-10%,4,
Cc1ccccc1NC(=O)C1CCCN(S(=O)(=O)c2cnc[nH]2)C1 (stereo not drawn),8,.,-18,4%,-3,Arbovirus inh repeat=-1

# Among those listed so far, 2 contain two or more sulfur atoms.
SMILES,Arbovirus inh,RecA intein inh,YopH PTP inh,Mtb growth,Mtb betalactam,others
COCCNC(=O)CSCc1nc(-c2ccc(SC)cc2)oc1C,-2,5.0,-31,-4%,-3,
CCc1nc(SCc2nnc(-c3ccc(C)cc3)o2)c2c(C)c(C)sc2n1,.,0.1,-22,4%,-7,

# Back to the main list with the two entries that preceded the break.
SMILES,Arbovirus inh,RecA intein inh,YopH PTP inh,Mtb growth,Mtb betalactam,others
C/C(=N\Nc1ccccn1)c1ccc(OC(F)F)cc1,-20,0.9,.,-10%,4,
Cc1ccccc1NC(=O)C1CCCN(S(=O)(=O)c2cnc[nH]2)C1 (stereo not drawn),8,.,-18,4%,-3,Arbovirus inh repeat=-1
COc1ccc(C(=O)O/N=C(\N)Cc2ccc(Cl)cc2)cc1OC,12,3.0,-11,2%,5,
CC(C)(C)[C@H]1C=C(C(N)=O)O[C@@H](OCCCCO)C1,.,-0.1,.,-9%,-6,
CCOC(=O)c1c(CN2CCN(CCO)CC2)n(-c2ccccc2)c2cc(Br)c(O)cc12,.,2.4,.,0%,9,
COc1ccc(NC(=O)/C=C/c2c(Cl)nc3ccccn23)cc1,-5,4.6,.,7%,4,
O=C1CC(c2ccc(Cl)cc2)CC(O)=C1C=NCCO (stereo not drawn),.,-1.5,.,.,-4,
COc1ccc(CCC(=O)N/N=C/c2ccc3c(c2)OCO3)cc1,.,0.2,.,.,74,
COc1cccc(CNC(=O)c2cccnc2Sc2ccc(Cl)cc2)c1,.,-0.6,.,.,4,
COc1ccc(CNC(=O)c2c(C)oc3c2C(=O)c2ccccc2C3=O)cc1,-35,58*,-4,79%,99,
O=C(O)COCC(=O)NC1CCN(Cc2ccccc2)CC1,.,-1.1,.,7%,-4,
CCOC(=O)c1ccc2c(c1)nc(SCc1cn3ccsc3n1)n2CC,16,1.9,-45,7%,9,
CCCCn1c(N)c(N(CC)C(=O)c2ccccc2C(F)(F)F)c(=O)[nH]c1=O,.,-1.6,.,.,1,
CN(C(=O)CN(c1ccccc1)S(=O)(=O)c1ccc(F)cc1)C1CCS(=O)(=O)C1 (stereo not drawn),.,-2.5,.,-11%,-4,
CN1C(=O)/C(=C/c2cccc(Cl)c2)Sc2ccc(C(=O)N3CCOCC3)cc21,.,3.7,.,.,98,
CCC1CCCCN1CCCNC(=O)C1CC(=O)N(CCc2ccccc2)C1 (stereo not drawn),.,-2.6,.,.,-3,
CC(=O)c1nn(-c2ccc(Cl)cc2)cc1C(=O)c1ccc(C)cc1,.,-2.1,.,.,8,
CCC(=O)NCC(c1ccco1)N1CCN(c2ccc(OC)cc2)CC1 (stereo not drawn),4,-6.1,.,4%,-5,
COc1ccc(OC)c(-c2cc(C(=O)Nc3c(C)nn(Cc4ccccc4C)c3C)no2)c1,8,3.5,-46,73%,83,
Cc1ccc(C)c(N(C(=O)CS(=O)CC(=O)Nc2ccc3c(c2)OCO3)C(C)C(=O)NC2CCCC2)c1 (stereo not drawn),-10,1.1,4,-13%,4,
CS(=O)(=O)N(Cc1ccc(C(=O)NC2CCCC2)cc1)c1ccccc1,-4,2.9,.,-2%,1,
Cc1cc(NS(=O)(=O)c2ccc(NC(=S)NC(=O)c3ccc(F)cc3)cc2)no1,1,1.8,-7,3%,11,
COc1ccc(N2C(=O)CNC2=S)cc1,-4,1.7,-8,3%,1,
O=P(O)(O)CCP(=O)(c1ccccc1)c1ccccc1,-5,-3.8,-25,-5%,7,
Cc1cccn2c(=O)c3cc(C(=O)N4CC(C)CC(C)C4)sc3nc12 (stereo not drawn),.,-14,.,.,5,
O=C1c2ccccc2C(O)(Cc2ccccc2)N1Cc1ccco1 (stereo not drawn),-1,3.1,-21,-4%,0,
COc1ccc(C(=O)Nc2cc(=O)[nH]c3ncnn23)cc1,.,0.3,.,-13%,-2,

# Filtered by structure, the entries above containing a thiophene ring, fused or not.
SMILES,Arbovirus inh,RecA intein inh,YopH PTP inh,Mtb growth,Mtb betalactam,others
CCC(C)NC(=O)c1cc2c(=O)n3ccccc3nc2s1 (stereo not drawn),.,2.1,.,.,6,
CCc1nc(SCc2nnc(-c3ccc(C)cc3)o2)c2c(C)c(C)sc2n1,.,0.1,-22,4%,-7,
Cc1cccn2c(=O)c3cc(C(=O)N4CC(C)CC(C)C4)sc3nc12 (stereo not drawn),.,-14,.,.,5,

# Carrying on:
SMILES,Arbovirus inh,RecA intein inh,YopH PTP inh,Mtb growth,Mtb betalactam,others
CCOC(=O)C(C)Sc1nc(-c2ccccc2)nc2ccccc12 (stereo not drawn),10,0.2,.,7%,13,
O=C(Nc1ccnn1C1CCN(Cc2ccccc2OC(F)F)CC1)c1cccc(F)c1,.,0.7,.,.,2,
COc1ccc(CNC(=O)Cn2c(=O)oc3ccccc32)cc1OC,-6,.,-2,-1%,-5,
COc1ccc(/C(C)=N/N=C(\C)c2ccc(OC)cc2OC)c(OC)c1,-8,1.1,-8,-3%,0,
CCOC(=O)c1c2ccc(OCC(=O)N/N=C/c3ccccc3C(F)(F)F)cc2n2ccccc12,-4,.,9,2%,.,
CC(OC(=O)c1cccnc1Cl)C(=O)Nc1ccc2c(c1)OCCO2 (stereo not drawn),19,.,.,-8%,4,
COc1cc([N+](=O)[O-])ccc1NC(=O)C[n+]1ccccc1,1,-1.2,-30,3%,66,
O=C(COC(=O)c1ccccc1)Nc1ccc(Cl)cc1C(=O)c1ccccc1,2,18,0,12%,2,
O=C(O)c1ccccc1C(=O)NCCc1ccc(Cl)cc1,4,2.1,.,2%,-7,
COc1cccc(C(=O)NCCS(=O)(=O)N2CCc3ccccc3C2)c1,.,0.3,.,.,-9,
CCOC(=O)c1ccc(NC(=O)CN2C(=O)C(CC)SC(CC)C2=O)cc1 (stereo not drawn),-2,1.8,-15,-7%,-12,
COC(=O)Nc1c(C(=O)OC)cc(OC)c(OC)c1OC,18,-0.3,-51,-11%,2,Arbovirus inh repeat=8
Cc1cc(N=Nc2c(O)c3ccccc3[nH]c2=O)ccc1N=Nc1ccc(C(=O)N(C)C)cc1,.,-6.6,.,1%,.,
COc1ccc(S(=O)(=O)NCc2ccc(F)cc2)cc1OC,1,0.5,.,4%,-4,
COc1ccc(CCC(=O)OCC(=O)c2cccc(OC)c2)cc1,1,13,.,2%,13,
Cc1cccc(NC(=O)CN2C(=O)c3ccccc3C2=O)c1C,18,-2.9,.,-9%,3,
Cc1ccc(CNC(=O)c2ccc3c(c2)NC(=O)C(N2CCOCC2)S3)cc1 (stereo not drawn),9,0.8,.,10%,-4,
COc1ccc(C(=O)COC(=O)CN2C(=O)NC(C)(C)C2=O)cc1OC,5,-8.3,-35,-1%,-12,
COC(=O)CSc1nc(NC(C)C)nc(N2CCOCC2)n1,2,-4.5,29,9%,59,
COc1ccc(N/C=C/C(=O)C(C)(C)C)cc1,-4,-0.4,.,?,87,
CCOCCCNC(=S)N1CCCN(c2nc3c(C)c(C)ccc3cc2C#N)CC1,1,-15,.,14%,.,
CC(C)N(C(=O)CSc1nnc(-c2cc3ccccc3cc2O)n1Cc1ccco1)C(C)C,-6,1.9,19,2%,-4,
O=C1c2ccccc2N2C(=O)c3ccccc3C2N1Cc1ccco1 (stereo not drawn),-5,0.6,-55,-6%,0,Arbovirus inh repeat=-1
CCNc1nc(SCC(=O)OC)nc(N(C)C)n1,13,-4.1,.,6%,2,
CCOC(=O)C1CN(C)CCC1=O (stereo not drawn),0,3.2,-9,0%,-12,
# Carrying on.
SMILES,Arbovirus inh,RecA intein inh,YopH PTP inh,Mtb growth,Mtb betalactam,others
O=C1CC(c2ccccc2Br)c2cc3c(cc2N1)CCC3 (stereo not drawn),-22,.,.,-4%,2,
COC(=O)c1ccc(Nc2cc(C)nc3nc(C)nn23)cc1,-2,1.7,-22,.,1,Arbovirus inh repeat=3
Cc1cc(OC(C)C(=O)N[C@H](C(=O)O)c2ccccc2)c2c3c(c(=O)oc2c1)CCC3 (stereo partly drawn),.,-1.1,.,.,-8,
O=C(/C=C\c1cn(-c2ccccc2)nc1-c1ccc2c(c1)OCCO2)N1CCOCC1,-17,-1.2,.,-15%,27,
CCN(CC)CCCNC(=O)c1ccccc1NC(=O)C1=CSCCO1,.,-1.5,.,.,-1,
O=C(Cn1cnc2sc3c(c2c1=O)CCCC3)NCCCC(=O)N1CCC2(CC1)OCCO2,0,0.1,-24,-12%,-4,
CC(=O)c1cc(-c2ccccc2)n(CC(=O)N2CCC(N3CCCCC3)CC2)c1C,13,-17,32,5%,.,
Cc1ccc(NC(=O)CCC(=O)N/N=C/c2cccs2)cc1,0,-0.8,.,4%,22,
Cc1cccc(N=Nc2cnc(N)s2)c1,.,2.5,.,-1%,14,
N#Cc1ccsc1NC(=O)CN1CCN(c2ccccc2)CC1,7,0.1,-34,0%,-1,
COc1ccc(C(=O)Nc2ccc3nc(N4CCCCC4)cc(C)c3c2)cc1OC,-37,-0.4,-20,?,71,
COc1ccc(OC)c2sc(NC(=O)c3ccc(Cl)s3)nc12,4,-1.5,-27,5%,6,Arbovirus inh repeat=-2
Cc1ccccc1CCNC(=O)CCn1nc(C)c2c(C)n(-c3ccccc3)nc2c1=O,.,0.7,.,.,5,
O=C(c1cc(C2CC2)on1)N1CCN(C(c2ccccc2)c2ccccc2)CC1,6,0.0,-21,-8%,1,Arbovirus inh repeat=-3
Cc1cccc(-n2c(N)cc(=O)[nH]c2=S)c1C,-6,-0.6,-24,-2%,-10,
COc1ccccc1NC(=S)N(CCCN1CCOCC1)Cc1cccs1,3,2.0,.,-4%,-2,
CC(=O)c1ccc(NC(=O)c2ccc(NC(=O)CCS(=O)(=O)c3cccs3)cc2)cc1,-5,1.1,.,-3%,-6,

# Assay outcomes (PubChem)
